Bioassay records (PubChem)
GIV-Gai inh – inhibitors of GIV GBA-motif binding to rat Galpha-i3 | P08753 | Galpha-i3/FITC-GIV peptide fluorescence polarization, 90 min; active compounds read low; scaled: aluminum fluoride 0%, vehicle 100% | percent of control (FP), % (no concentration beside the values) | 0.42% of 210,000 active | AID 1224905;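 active = replicate mean at 85% of control or lower, very high polarization wells dropped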;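 note: wells of about 15 µL received 100 nL stock; the first replicate is given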
Target sequence (P08753 whole entry, looked up): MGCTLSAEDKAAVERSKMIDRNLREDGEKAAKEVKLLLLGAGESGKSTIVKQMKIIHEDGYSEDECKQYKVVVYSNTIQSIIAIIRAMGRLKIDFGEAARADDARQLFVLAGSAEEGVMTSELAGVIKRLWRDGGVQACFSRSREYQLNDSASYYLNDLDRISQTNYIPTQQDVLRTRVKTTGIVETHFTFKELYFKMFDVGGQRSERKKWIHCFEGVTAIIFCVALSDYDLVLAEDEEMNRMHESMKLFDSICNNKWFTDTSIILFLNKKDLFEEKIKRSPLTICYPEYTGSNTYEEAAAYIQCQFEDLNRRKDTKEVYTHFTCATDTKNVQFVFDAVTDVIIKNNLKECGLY
Sa growth inh – inhibitors of Staphylococcus aureus growth at 42 °C. 0.53% of 170,000 active. S. aureus RN4220 growth, OD600, 20 h; active compounds read low. relative growth, % (concentration not given with the values);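 active = growth at 42 °C up to 50% and 20 or more points under that at 30 °C, or under 10% at both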;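 note: 300 nL library stock went into each well; scaled to the means of positive and negative controls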
HCMV NEC inh – disrupts HCMV UL50-UL53 complex binding. HTRF UL50-UL53 interaction, normalized percent inhibition. 0.15% of 190,000 active. inhibition, % (concentration not given with the values);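 active = both replicates at 50% or more, plus weaker picks with an unusually low signal ratio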;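 note: stock transfer was 100 nL into about 20 µL; 0% = negative control wells and 100% = wells with untagged competitor protein; inactives centre near -12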
Sa growth inh second temp – second read-out of Sa growth inh, no call of its own (marks repeat the call); relative growth, %; measured here: growth at 30 °C;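 optical density after 20 h as mean of two plates; 100% = untreated growth and lower means inhibition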
The depositor's hits bear a star; & = joins results of further samples.

`CCOc1ccc(N2CC(c3nc4ccccc4n3CCOc3ccc(CC)cc3)CC2=O)cc1` (stereo unspecified) gave GIV-Gai inh 103, Sa growth inh 108, HCMV NEC inh -37 and Sa growth inh second temp 85.
`CCN(Cc1ccccc1)C(=O)CSc1nc(C)cc2c1C(=O)OC2` gave Sa growth inh 92, HCMV NEC inh -4 and Sa growth inh second temp 75.
Screening C=CCNC(=S)Nc1c(C)nn(CC)c1C returned GIV-Gai inh 111, Sa growth inh 94, HCMV NEC inh 3 and Sa growth inh second temp 98.
FC(F)(F)c1cc(-c2cccc(Br)c2)nc2ncnn12 was read as GIV-Gai inh 103, Sa growth inh 98, HCMV NEC inh -53 and Sa growth inh second temp 97.
`CCOC(=O)c1cc(-c2ccccc2)n(CCCC(=O)Nc2ccc(C)c(C)c2)c1C` gave GIV-Gai inh 100, Sa growth inh 109 and Sa growth inh second temp 107.
For Cc1ccc(NC(CC(=O)C2CC2)c2ccccc2)cc1 (stereo unspecified) the results were GIV-Gai inh 105, Sa growth inh 118, HCMV NEC inh 6 and Sa growth inh second temp 101.
CCOc1ccc(OCC)c(NC(=O)CSc2nc3c(c(=O)n(C)c(=O)n3C)n2C(C)C)c1 was read as GIV-Gai inh 102, Sa growth inh 118, HCMV NEC inh -12 and Sa growth inh second temp 88.
For CCOC(=O)N1CCN(C(=O)CSc2nnc(Cc3cccn3C)n2-c2ccc(F)cc2)CC1 the results were GIV-Gai inh 96, Sa growth inh 111 and Sa growth inh second temp 88.
COc1cccc(CNc2nc3ccccc3n2C)c1 was read as GIV-Gai inh 99, Sa growth inh 84, HCMV NEC inh 2 and Sa growth inh second temp 65.
For CCc1nn2c(=O)cc(COC(=O)c3ccc(NC(=O)C4CCCCC4)cc3)nc2s1 the results were GIV-Gai inh 100, Sa growth inh 106 and Sa growth inh second temp 88.
For Cc1cc(C(=O)NCC2(c3ccccc3)CCOCC2)oc1C the results were GIV-Gai inh 114, Sa growth inh 105, HCMV NEC inh 11 and Sa growth inh second temp 100.
CCn1c(SCC(=O)NC2CCCC(C)C2C)nnc1-c1ccccc1 (stereo unspecified) was read as Sa growth inh 96, HCMV NEC inh 0 and Sa growth inh second temp 93.
For O=C(O)CCC1CCCCC1=O (stereo unspecified) the results were GIV-Gai inh 98, Sa growth inh 103, HCMV NEC inh 7 and Sa growth inh second temp 88.
Screening CC(=O)Nc1cc2c(cc1C(=O)c1ccccc1)OCCO2 returned GIV-Gai inh 97, Sa growth inh 97, HCMV NEC inh 5 and Sa growth inh second temp 72.
Screening O=C(NNc1ncnc2c1cnn2-c1ccccc1)c1cccc(Cl)c1 returned GIV-Gai inh 108, Sa growth inh 123 and Sa growth inh second temp 96.
Screening CN(N)C(=O)Nc1ccccc1 returned Sa growth inh 83, HCMV NEC inh 12 and Sa growth inh second temp 104.
`COc1cccc(CN2C(=O)c3ccccc3Sc3ccc(C(=O)N(C)Cc4ccccc4)cc32)c1` gave GIV-Gai inh 106&104, Sa growth inh 105, HCMV NEC inh -8&-23 and Sa growth inh second temp 95.
For CCOC(=O)c1sc2nc(CC(=O)OC)nc(Nc3cc([N+](=O)[O-])ccc3OC)c2c1C the results were GIV-Gai inh 115 and HCMV NEC inh 0.
`COc1ccc(-c2nc3ccccc3s2)cc1NC(=O)c1cccc([N+](=O)[O-])c1C` gave GIV-Gai inh 105, Sa growth inh 94, HCMV NEC inh -10 and Sa growth inh second temp 91.
Screening Cn1nccc1NC(=O)COCC(=O)O returned GIV-Gai inh 104, Sa growth inh 122, HCMV NEC inh -5 and Sa growth inh second temp 95.

Arranged by formula weight (smallest number first): some entries from above.
COc1cccc(CNc2nc3ccccc3n2C)c1 was read as GIV-Gai inh 99, Sa growth inh 84, HCMV NEC inh 2 and Sa growth inh second temp 65.
For Cc1ccc(NC(CC(=O)C2CC2)c2ccccc2)cc1 (stereo unspecified) the results were GIV-Gai inh 105, Sa growth inh 118, HCMV NEC inh 6 and Sa growth inh second temp 101.
`CCN(Cc1ccccc1)C(=O)CSc1nc(C)cc2c1C(=O)OC2` gave Sa growth inh 92, HCMV NEC inh -4 and Sa growth inh second temp 75.
Screening O=C(NNc1ncnc2c1cnn2-c1ccccc1)c1cccc(Cl)c1 returned GIV-Gai inh 108, Sa growth inh 123 and Sa growth inh second temp 96.
For CCc1nn2c(=O)cc(COC(=O)c3ccc(NC(=O)C4CCCCC4)cc3)nc2s1 the results were GIV-Gai inh 100, Sa growth inh 106 and Sa growth inh second temp 88.
CCOc1ccc(OCC)c(NC(=O)CSc2nc3c(c(=O)n(C)c(=O)n3C)n2C(C)C)c1 was read as GIV-Gai inh 102, Sa growth inh 118, HCMV NEC inh -12 and Sa growth inh second temp 88.

Additional results.
`Cn1c(=O)n(Cc2ccccc2)c(=O)c2c1nc(Cl)n2Cc1ccccc1` gave GIV-Gai inh 96, Sa growth inh 95 and Sa growth inh second temp 88.
For COC(=O)C1=C(Nc2ccccc2NS(=O)(=O)c2ccc(C(F)(F)F)cc2Cl)CSC1 the results were GIV-Gai inh 102, Sa growth inh 88, HCMV NEC inh -28 and Sa growth inh second temp 52.
Screening C1=C(c2ccccc2)Nc2nc3ccccc3n2C1c1ccccc1 (stereo unspecified) returned GIV-Gai inh 100, Sa growth inh 81 and Sa growth inh second temp 68.
O=C(Nc1ccccc1)Nc1ccccc1SCCS(=O)(=O)c1ccc(Cl)cc1 was read as GIV-Gai inh 104, Sa growth inh 94, HCMV NEC inh -46 and Sa growth inh second temp 90.
For Cc1cc(=O)nc2c3ccccc3n(CC(=O)NCc3cccc(Cl)c3)n12 the results were GIV-Gai inh 109 and HCMV NEC inh -2.
`Cc1ccc(OCCCn2c(COc3ccccc3)nc3ccccc32)cc1` gave GIV-Gai inh 105 and HCMV NEC inh -13.
CC(C)(C)C(=O)CNS(=O)(=O)c1ccc(S(=O)(=O)NC2CCCCC2)cc1 was read as GIV-Gai inh 98, Sa growth inh 95, HCMV NEC inh -22 and Sa growth inh second temp 92.
`Cc1ccc(-n2nc(N3CCCN(C(=O)c4cc5ccccc5[nH]4)CC3)ccc2=O)cc1` gave GIV-Gai inh 103 and HCMV NEC inh -61.
For N/C(=N\C(=S)Nc1ccccc1)N1CCN(Cc2ccccc2)CC1 the results were GIV-Gai inh 106, Sa growth inh 102, HCMV NEC inh 2 and Sa growth inh second temp 92.
`CCOC(=O)c1c(-c2ccccc2)oc2ccc(OCC(=O)NN)cc12` gave GIV-Gai inh 103, Sa growth inh 116, HCMV NEC inh -8 and Sa growth inh second temp 95.
CNC(=O)CCC(=O)Nc1ccc(C)cc1 was read as GIV-Gai inh 100, Sa growth inh 72, HCMV NEC inh 6 and Sa growth inh second temp 105.
C(=Nn1cncn1)c1ccc(N2CCOCC2)cc1 was read as GIV-Gai inh 102, Sa growth inh 104 and Sa growth inh second temp 83.
COc1ccc(-c2cc(C(F)(F)F)n3nc(C(=O)Nc4ccc(Cl)cc4C(F)(F)F)cc3n2)cc1OC was read as GIV-Gai inh 106, Sa growth inh 108, HCMV NEC inh -11 and Sa growth inh second temp 82.
Screening Cc1cc(N2CCC3(CC2)OCCO3)n2nc(C)c(-c3ccc(Cl)cc3)c2n1 returned GIV-Gai inh 105, Sa growth inh 78, HCMV NEC inh 3 and Sa growth inh second temp 81.
For CN(Cc1ccco1)C(=O)c1ccc(N2CCCC2=O)cc1 the results were GIV-Gai inh 98, Sa growth inh 107, HCMV NEC inh 2 and Sa growth inh second temp 93.
For O=C(OCc1nc2ccccc2[nH]1)C1CCCCC1 the results were Sa growth inh 103, HCMV NEC inh -2 and Sa growth inh second temp 93.
`Cc1ccc(O)c(NC(=O)c2noc3c2CCc2ccccc2-3)c1` gave GIV-Gai inh 103 and HCMV NEC inh -25.
`COc1ccc2cc(-c3cn4c(n3)sc3cc(F)ccc34)c(=O)oc2c1` gave GIV-Gai inh 111, Sa growth inh 115 and Sa growth inh second temp 86.
Cc1ccc(C(=O)Nc2nc3c(s2)CN(C)CC3)cc1 was read as GIV-Gai inh 100 and HCMV NEC inh -1.
For CCCSC1=C(N(C)C)C(=O)c2ccccc2C1=O the results were Sa growth inh 43, HCMV NEC inh 24 and Sa growth inh second temp 29.
Screening COCc1cc(C)nc(SCC(=O)Nc2ccc(C)c(C)c2)c1C#N returned GIV-Gai inh 102 and HCMV NEC inh -20.
O=c1nc2c(-c3cccc(Cl)c3)n[nH]n2c2ccccc12 was read as GIV-Gai inh 96, Sa growth inh 90, HCMV NEC inh -25 and Sa growth inh second temp 63.
For Cc1ccc(-c2csc(-c3c(N)c(C(=O)c4ccc5c(c4)OCO5)n4ccccc34)n2)cc1C the results were GIV-Gai inh 89, Sa growth inh 101, HCMV NEC inh -16 and Sa growth inh second temp 90.
O=c1cc(-c2ccccc2)nc(-c2ccccc2)o1 was read as GIV-Gai inh 101, Sa growth inh 73, HCMV NEC inh -5 and Sa growth inh second temp 58.
For N#Cc1cc[n+](CC(=O)c2cccs2)cc1 the results were GIV-Gai inh 99, Sa growth inh 74, HCMV NEC inh -51 and Sa growth inh second temp 90.
For CC(=O)N1C(=O)C(=O)c2cc(S(=O)(=O)N3CCOCC3)ccc21 the results were GIV-Gai inh 104 and HCMV NEC inh -20.
For CC1CC(C)CN(C(=O)c2cc(N(C)S(=O)(=O)c3ccccc3)ccn2)C1 (stereo unspecified) the results were GIV-Gai inh 99, Sa growth inh 114, HCMV NEC inh -14 and Sa growth inh second temp 88.
Screening O=C(Nc1ccccc1)C1Cc2ccccc2CN1C(=O)c1ccco1 (stereo unspecified) returned Sa growth inh 121, HCMV NEC inh -8 and Sa growth inh second temp 101.
`COc1cc(C=C2C(=O)NC(=O)NC2=O)ccc1OCCOc1ccc([N+](=O)[O-])cc1` gave GIV-Gai inh 102 and HCMV NEC inh 2.
Screening Cc1ccc(N=C2NC(=O)C(CC(=O)Nc3ccc(OC(F)(F)F)cc3)S2)cc1 (stereo unspecified) returned GIV-Gai inh 100, Sa growth inh 84, HCMV NEC inh -13 and Sa growth inh second temp 90.
Screening COc1ccc(-c2[nH]nc3c2C(c2ccc(OC)c(OC)c2)C2=C(CC(C)(C)CC2=O)N3)cc1 (stereo unspecified) returned GIV-Gai inh 99 and HCMV NEC inh 16.
Screening Cc1ccc(NCCNc2ccc(C)cc2C)c(C)c1 returned GIV-Gai inh 97, Sa growth inh 90, HCMV NEC inh -9 and Sa growth inh second temp 93.
Screening CC(C)N(Cc1nc(-c2ccc(Cl)cc2)no1)C(=O)c1ccco1 returned GIV-Gai inh 102, Sa growth inh 110, HCMV NEC inh -11 and Sa growth inh second temp 85.
`COC(=O)c1sccc1S(=O)(=O)N1CCN(c2ccccn2)CC1` gave GIV-Gai inh 108 and HCMV NEC inh -2.
For COc1ccc(-c2nc(CSc3nnc(C)n4c3cc3occc34)c(C)o2)cc1OC the results were GIV-Gai inh 101, Sa growth inh 100 and Sa growth inh second temp 79.
`Cc1ccc(Cc2cnc(NC(=O)C3=Cc4ccc(C)cc4OC=C3)s2)cc1` gave GIV-Gai inh 100 and HCMV NEC inh -22.
COc1ccccc1N1CCN(C(=O)C(C)N2C(=O)c3ccccc3C2=O)CC1 (stereo unspecified) was read as GIV-Gai inh 104, Sa growth inh 102, HCMV NEC inh -3 and Sa growth inh second temp 95.
NS(=O)(=O)c1ccc(NS(=O)(=O)c2cccc(C(F)(F)F)c2)cc1 was read as GIV-Gai inh 101, Sa growth inh 114, HCMV NEC inh 7 and Sa growth inh second temp 97.
Screening COc1cc(NC(=O)CCS(=O)(=O)c2ccc(Br)cc2)cc(OC)c1 returned GIV-Gai inh 101, Sa growth inh 106 and Sa growth inh second temp 87.
For O=C(NCCS(=O)(=O)N1CCN(c2ccc(F)cc2)CC1)c1cccc(C(F)(F)F)c1 the results were GIV-Gai inh 102, Sa growth inh 82 and Sa growth inh second temp 91.
Screening C=C(C)C1CCC(C)OC1c1ccccc1 (stereo unspecified) returned GIV-Gai inh 98, Sa growth inh 83, HCMV NEC inh -28 and Sa growth inh second temp 72.
`Cc1ccc(C)c(N2CCN(c3nc4ccc(C)cc4nc3-n3nc(C)cc3C)CC2)c1` gave GIV-Gai inh 103, Sa growth inh 100, HCMV NEC inh -7 and Sa growth inh second temp 87.
For COc1ccc2[nH]c(C)cc(=S)c2c1 the results were GIV-Gai inh 97, Sa growth inh 83 and Sa growth inh second temp 58.
For COc1ccc(C2CC(c3ccc(OC)c(OC)c3)=NN2C(C)=O)cc1 (stereo unspecified) the results were GIV-Gai inh 111 and HCMV NEC inh -47.
`Cn1ccnc1SC(F)(F)C(=O)c1cnc2ccccn12` gave GIV-Gai inh 107, Sa growth inh 86, HCMV NEC inh -5 and Sa growth inh second temp 79.
Cc1cc(=O)[nH]c(-c2ccccc2OC(F)(F)F)n1 was read as GIV-Gai inh 106, Sa growth inh 90, HCMV NEC inh 1 and Sa growth inh second temp 93.
N#CC(c1ccc(C(=O)c2ccccc2)cc1)c1cccs1 (stereo unspecified) was read as GIV-Gai inh 104 and HCMV NEC inh -26.
`C=CCn1c(SCC(=O)c2ccc(OC)cc2)nc2sc3c(c2c1=O)CCCC3` gave GIV-Gai inh 107 and HCMV NEC inh -14.
Screening COC(=O)C1=C(C)NC2=C(C(=O)CC(c3ccco3)C2)C1c1ccccc1Br (stereo unspecified) returned GIV-Gai inh 102, Sa growth inh 101, HCMV NEC inh -10 and Sa growth inh second temp 90.

Looked up one by one from the entries so far (2):
COc1ccccc1N1CCN(C(=O)C(C)N2C(=O)c3ccccc3C2=O)CC1 (stereo unspecified) was read as GIV-Gai inh 104, Sa growth inh 102, HCMV NEC inh -3 and Sa growth inh second temp 95.
CCn1c(SCC(=O)NC2CCCC(C)C2C)nnc1-c1ccccc1 (stereo unspecified) was read as Sa growth inh 96, HCMV NEC inh 0 and Sa growth inh second temp 93.
